Compound activity (PubChem BioAssay)
MgrA-DNA mod = modulators of Staphylococcus aureus MgrA DNA binding; fluorescence polarization; inhibition, %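 (about 10 µg/mL by stock and volumes)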; hit rate 0.13% among 84,000;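 active = above 50% in either of two replicates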;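 also: 0% = protein plus DNA without compound and 100% = DNA alone without protein; higher means less MgrA bound to DNA so lower polarization; one replicate is shown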
Sa helicase inh = blocks Staphylococcus aureus DNA helicase; purified S. aureus helicase, fluorescence unwinding assay; about half of the hits fall short of the stated cut; inhibition, %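 (tested at about 80 µM)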; hit rate 0.05% among 120,000; AID 485395;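 active = both duplicates at 50% or more, or one of them with a favoured structure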;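 also: 0% = mean of negative control wells and 100% = mean of positive control wells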
Starred values were filed as active, the others as inactive; . = not tested or not shown.

compound | MgrA-DNA mod | Sa helicase inh
CN(C)S(=O)(=O)c1ccc(C(=O)Nc2ccccc2SCCC#N)cc1 | . | 8.0
Cc1nn(-c2ccc(Cl)cc2)c2sc(C(=O)O)cc12 | . | -10.0
CCn1c(CSc2nnc(C3CC3)n2C)nc2cc(S(=O)(=O)N3CCCCC3)ccc21 | . | 4.0
O=c1ccccn1CCOc1ccc(Cl)cc1Cl | -0.6 | -2.0
O=C(CCN1N=C(c2ccccc2)CCC1=O)Nc1cccc(C(F)(F)F)c1 | 6.1 | 17.0
CC(=O)N(C)Cc1nc2ccccc2n1CCOc1cccc(C)c1C | . | -18.0
CCN1CCN(C(=O)Nc2ccc(OC)cc2)CC1 | -1.3 | 13.0
S=c1[nH]nc(C2CCCCC2)n1N=Cc1cccnc1 | 4.6 | 15.0
Cc1nc(-c2c[nH]c3ccccc23)c(C)s1 | 4.5 | 6.0
CCC(C(=O)NC1CCCC1)N(C(=O)c1snc(C(N)=O)c1N)c1ccccc1 (stereo not drawn) | 0.3 | 6.0
O=C(Cc1cccs1)NCCCN1CCCC1=O | -1.6 | 6.0
Cc1cc(C)cc(NC(=O)c2ccc(COc3ccccc3Br)o2)c1 | . | 36.0
CCOC(=O)c1ccc(NC(=O)C2=CSCCO2)cc1 | . | -10.0
Clc1ccc(Sc2ccc(-c3ccccn3)s2)cc1 | 3.2 | .
CCN(CC)c1nn2c(=O)c(C(=O)N3CCC4(CC3)OCCO4)cnc2s1 | . | 6.0
N#Cc1ccc(NC(=S)NCCN2CCOCC2)cc1 | -1.2 | 5.0
COc1cccc(OC)c1CN(C)C(=O)c1cnc(OC(C)C)cc1C(F)(F)F | -2.1 | .
O=S(=O)(c1cccc(Cl)c1Cl)N1CCOCC1 | 1.1 | .
Cn1c(=O)c2c(-c3ccc(Br)cc3)n(CCO)cc2n(C)c1=O | . | 18.0
CCOC(=O)c1cc(-c2ccccc2)n(CCCC(=O)NCc2ccccc2)c1C | 0.8 | 4.0
O=C(CSc1nc2sc3c(c2c(=O)[nH]1)CCC3)Nc1ccccc1C(F)(F)F | . | 4.0
CCn1c2c(c(=O)[nH]c1=O)C(c1ccsc1)C1=C(N2)c2ccccc2C1=O (stereo not drawn) | -0.5 | 22.0
O=C(N1CCOCC1)N1CCN(Cc2ccccc2)CC1 | 4.2 | 2.0
N/C(=N/O)c1nc(N2CCCCC2)nc(N2CCCCC2)n1 | . | -10.0
Cc1cccc(OC(C)C(=O)OCC(=O)c2cc3ccccc3o2)c1 (stereo not drawn) | . | -13.0
O=C1Nc2ccccc2C1(O)Cc1ccccn1 (stereo not drawn) | -2.7 | .
CN1CCN(c2nc3ccccn3c(=O)c2/C=C2\SC(=S)N(Cc3ccco3)C2=O)CC1 | -0.3 | .
CC(C)c1cc(NC(=O)CSc2nc3ccc(Cl)cc3[nH]2)on1 | . | 18.0
O=[N+]([O-])/C=C/c1c(-c2ccc3ccccc3c2)[nH]c2ccccc12 | 1.2 | .
CC(C)CN1CCOC(CN)C1 (stereo not drawn) | . | 9.0

Single entries from above.
CC(C)CN1CCOC(CN)C1 (stereo not drawn) in Sa helicase inh = 9.0
CN(C)S(=O)(=O)c1ccc(C(=O)Nc2ccccc2SCCC#N)cc1 in Sa helicase inh = 8.0

(more compounds)
compound | MgrA-DNA mod | Sa helicase inh
O=C(COc1cc2oc(=O)c3c(c2cc1Cl)CCC3)NCc1ccco1 | . | 24.0
O=C1NC(Cc2c[nH]c3ccccc23)C(=O)N1CCN1C(=O)c2ccccc2C1=O (stereo not drawn) | . | 1.0
CC(C)N1CC=C2C(C1)C(c1ccccc1Cl)C(C#N)=C(N)C2(C#N)C#N (stereo not drawn) | 32.0 | -13.0
CCOC(=O)C(C)n1nc(C)c2sc3ccccc3c2c1=O (stereo not drawn) | 3.6 | 7.0
Nc1ccc2c(c1)ncn2CCc1ccccc1 | -1.2 | 24.0
CCN(C(=O)c1ccnc(C(C)(C)C)c1)c1ccccc1 | 1.4 | -3.0
CC(C)NC(=O)c1ccc(Cl)cc1Cl | -0.6 | 14.0
CCCn1c(=O)n(Cc2ccc(Br)cc2)c2ccccc21 | . | -26.0
O=C(O)c1cccc2c1NC(c1cccc3ccccc13)C1CC=CC21 (stereo not drawn) | 16.3 | .
CCOC(=O)C1=C(C)NC(=S)NC1c1cccc(O)c1 (stereo not drawn) | 1.4 | .
O=C1NCCCC1C(=O)NCC(O)CO (stereo not drawn) | . | 8.0
O=C(O)CCC1(CCC(=O)O)C(=O)c2cccc3cccc1c23 | -1.5 | .
Cc1cc2occ(CC(=O)OCc3ccc(C#N)cc3)c2cc1C | . | 6.0

17 successive entries out of the list so far, quoted:
compound | MgrA-DNA mod | Sa helicase inh
N/C(=N/O)c1nc(N2CCCCC2)nc(N2CCCCC2)n1 | . | -10.0
Cc1cccc(OC(C)C(=O)OCC(=O)c2cc3ccccc3o2)c1 (stereo not drawn) | . | -13.0
O=C1Nc2ccccc2C1(O)Cc1ccccn1 (stereo not drawn) | -2.7 | .
CN1CCN(c2nc3ccccn3c(=O)c2/C=C2\SC(=S)N(Cc3ccco3)C2=O)CC1 | -0.3 | .
CC(C)c1cc(NC(=O)CSc2nc3ccc(Cl)cc3[nH]2)on1 | . | 18.0
O=[N+]([O-])/C=C/c1c(-c2ccc3ccccc3c2)[nH]c2ccccc12 | 1.2 | .
CC(C)CN1CCOC(CN)C1 (stereo not drawn) | . | 9.0
O=C(COc1cc2oc(=O)c3c(c2cc1Cl)CCC3)NCc1ccco1 | . | 24.0
O=C1NC(Cc2c[nH]c3ccccc23)C(=O)N1CCN1C(=O)c2ccccc2C1=O (stereo not drawn) | . | 1.0
CC(C)N1CC=C2C(C1)C(c1ccccc1Cl)C(C#N)=C(N)C2(C#N)C#N (stereo not drawn) | 32.0 | -13.0
CCOC(=O)C(C)n1nc(C)c2sc3ccccc3c2c1=O (stereo not drawn) | 3.6 | 7.0
Nc1ccc2c(c1)ncn2CCc1ccccc1 | -1.2 | 24.0
CCN(C(=O)c1ccnc(C(C)(C)C)c1)c1ccccc1 | 1.4 | -3.0
CC(C)NC(=O)c1ccc(Cl)cc1Cl | -0.6 | 14.0
CCCn1c(=O)n(Cc2ccc(Br)cc2)c2ccccc21 | . | -26.0
O=C(O)c1cccc2c1NC(c1cccc3ccccc13)C1CC=CC21 (stereo not drawn) | 16.3 | .
CCOC(=O)C1=C(C)NC(=S)NC1c1cccc(O)c1 (stereo not drawn) | 1.4 | .

Not all compounds are listed (hit frequency here may not be typical).
